Mtb growth = Confirmatory growth inhibition assay against Mycobacterium tuberculosis H37Rv, potency (AID 1949); most inactive calls were filed without a number and no value below 0 was filed; inhibition, % at 10 µg/mL, or IC50 in µg/mL where a hit was titrated; 100,000 tested, 1.6% active;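 active means confirmed in a dose series; inconclusive means about 50% or more but not retested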;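 further: bacteria grown 7 days with compound before Alamar blue readout; 0% = untreated bacteria and 100% = reference antibiotic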
* hit, by the source's call; i = inactive; ? = inconclusive. Not all compounds are listed. The share of hits here may be higher or lower than overall.

| smiles | Mtb growth |
| --- | --- |
| C=CCn1c(SCC(=O)Nc2ncc(C)s2)nnc1-c1ccccc1O | i |
| C=CCNS(=O)(=O)c1ccc2ccccc2c1 | i |
| CCc1ccc(N(CC(=O)Nc2ccccc2C(=O)NC2CCCCC2)S(C)(=O)=O)cc1 | i |
| CCN1CCN(CCCCOc2cccc(Br)c2)CC1 | i |
| Cn1c(NCc2ccc(Br)cc2)nc2ccccc21 | i |
| CCc1cccc(OCC(=O)Nc2ccc([N+](=O)[O-])cc2)c1 | 11.7µg/mL* |
| COc1ccc(Cl)cc1NC(=O)C1CC=CCC1C(=O)O (centres undefined) | i |
| Cc1ccc(NC(=O)COc2ccc(Br)cc2Cl)c(C)c1 | i |
| CCOCCCNS(=O)(=O)c1c(C)cc(C)cc1C | i |
| CC1CCc2c(sc(NC(=O)c3ccccc3F)c2C(=O)N(C)C)C1 (centres undefined) | 4.4% |
| Cc1cc(Cl)cc(Cl)c1OCCOCCN(C)C | i |
| COc1ccc(NC(=O)NCc2ccncc2)c(OC)c1 | i |
| Cc1nc(=O)c(-c2ccccc2)c(C)n1CCCN1CCOCC1 | i |
| CC(C)c1ccc(NC(=O)CC2Sc3ccccc3NC2=O)cc1 (centres undefined) | 0.7% |
| COC(=O)c1sc(NC(=S)NCc2ccc(Cl)c(Cl)c2)c(C(=O)OC)c1C | i |
| CCCOc1ccc(-c2csc3ncn(Cc4ccccc4C)c(=O)c23)cc1 | 3.0% |
| O=S(=O)(NC1CCCCC1)c1ccc(F)c2ccccc12 | i |
| COc1ccccc1CNC(=O)Nc1ccc(F)cc1F | i |
| Cc1ccc(-c2nc3ccc(NS(=O)(=O)c4ccccc4)cc3[nH]2)o1 | 3.7% |
| Cc1ccc(C(=O)NC(=S)Nc2sc(C)c(C)c2C#N)cc1 | 2.1% |
| Cc1ccc(S(=O)(=O)N(CC(=O)O)c2cc(Cl)ccc2C)cc1 | i |
| CC1CCCCN1S(=O)(=O)c1ccc(C(=O)N2CCOCC2)cc1 (centres undefined) | i |
| c1ccc(COc2ccccc2CNC23CC4CC(CC(C4)C2)C3)cc1 | 49.8% |
| O=C(O)CCCC(=O)Nc1ccc(Br)cc1C(=O)O | i |
| CCc1c(O)nc(SCC(=O)N2CCOCC2)n(-c2ccccc2)c1=O | i |
| COc1cccc(NC(=S)NN2CCN(C)CC2)c1 | i |
| COc1cc(NC(=O)CSc2nc(-c3ccco3)cc(C(F)(F)F)n2)cc(OC)c1OC | i |
| COc1cc(C(=O)Nc2cccc(-c3nnc(-c4ccco4)o3)c2)ccc1OC(C)=O | i |
| COC(=O)c1ccc(CN2C(=O)COc3ccc(Cl)cc32)o1 | i |
| CCOC(=O)C1=C(C)NC(=S)NC1c1cc(I)c(OCC#N)c(OC)c1 (centres undefined) | i |

5 records picked at random from the list so far, as already listed:
| smiles | Mtb growth |
| --- | --- |
| CC1CCCCN1S(=O)(=O)c1ccc(C(=O)N2CCOCC2)cc1 (centres undefined) | i |
| c1ccc(COc2ccccc2CNC23CC4CC(CC(C4)C2)C3)cc1 | 49.8% |
| COC(=O)c1sc(NC(=S)NCc2ccc(Cl)c(Cl)c2)c(C(=O)OC)c1C | i |
| COc1ccccc1CNC(=O)Nc1ccc(F)cc1F | i |
| Cc1nc(=O)c(-c2ccccc2)c(C)n1CCCN1CCOCC1 | i |

New compounds follow
| smiles | Mtb growth |
| --- | --- |
| CCOc1ccc(C(=O)c2oc3ccccc3c2NC(=O)c2cc(OC)c(OC)c(OC)c2)cc1 | i |
| CCOc1cccc(C(=O)N2CCN(c3ccc([N+](=O)[O-])c(N4CCCCC4)c3)CC2)c1 | 5.3% |
| Cc1ccc(-c2nnc(N3CCN(S(=O)(=O)c4ccc(C)cc4)CC3)c3ccccc23)cc1 | 8.9% |
| CC1CCc2c(sc3ncn(Cc4c(F)cccc4Cl)c(=O)c23)C1 (centres undefined) | i |
| O=c1cc(-c2ccccc2)c2cc(Cl)c(OS(=O)(=O)c3ccccc3)cc2o1 | i |
| COc1cccc(C2C(C(=O)c3ccc(C)o3)=C(O)C(=O)N2CCN2CCOCC2)c1 (centres undefined) | i |
| CC1Cc2ccccc2N1C(=O)c1ccc2c(c1)OCO2 (centres undefined) | 0.8% |
| CCc1ccccc1NC(=O)CN(Cc1ccccc1Cl)S(=O)(=O)c1ccc(Cl)cc1 | 1.9% |
| CCOc1ccc(-n2c(SCC(=O)Nc3cc(C(F)(F)F)ccc3Cl)nnc2-c2cccnc2)cc1 | 0.4% |
| COc1ccc(NC(=S)NC2CC(C)(C)NC(C)(C)C2)c(OC)c1 | i |
| CC(C)OC(=O)c1cc(NC(=S)NC(=O)c2ccco2)ccc1Cl | i |
| O=C(Nc1nc2ccccc2n1CCN1CCOCC1)c1ccc(Br)cc1 | 37.8% |
| CCOC(=O)C1CCCN(C(=O)c2ccc(Cl)c(Cl)c2)C1 (centres undefined) | i |
| O=C(CN1C(=O)c2cccc3cccc1c23)NCCC1=CCCCC1 | i |
| N=C1/C(=C/c2ccc(OC(=O)c3ccco3)cc2)C(=O)N=C2SC(C(F)(F)F)=NN12 | i |
| Cc1cccc(NC(=O)c2ccc(Br)cc2)n1 | i |
| Cc1ccc(Cl)c(OCCCCN2CCNCC2)c1 | 0.4% |
| O=C(CSc1nnnn1-c1ccccc1)Nc1ccc(Cl)cn1 | i |
| COc1ccc(CN2C(=S)N(c3cccc(C(C)=O)c3)C(=O)C2CC(=O)Nc2ccccc2)cc1 (centres undefined) | i |
| O=C(CSc1nc2ccccc2c(=O)n1-c1ccc(Cl)cc1)Nc1ccc2c(c1)OCCO2 | i |
| Cc1cc(C)nc(NS(=O)(=O)c2ccc(NC(=O)c3ccc4c(c3)OCCO4)cc2)n1 | i |
| Cc1cccc(NS(=O)(=O)c2ccc(Br)c(C(=O)Nc3ccccc3)c2)c1 | i |
| CCOc1ccc(C(=O)Nc2ccc3c(c2)OCO3)cc1OCC | i |
| CN(c1ccc(C(=O)NC2CC2)cc1)S(C)(=O)=O | i |
| O=C1CCC(=O)N1c1ccc2nc(-c3ccccc3)[nH]c2c1 | i |
| Cc1c(NC(=O)CN(c2ccccc2)S(=O)(=O)c2ccccc2[N+](=O)[O-])c(=O)n(-c2ccccc2)n1C | i |
| O=C(Nc1ccc(I)cc1)C1CCN(C(=O)c2cccs2)CC1 | i |
| O=C(N(c1ccccc1)c1ccccc1)C(F)(F)F | i |
| Cc1ccc(OC(=O)c2cccc([N+](=O)[O-])c2)c(Br)c1 | i |
| COc1ccc(OC)c(C2NC(=S)NC(C)=C2C(=O)Nc2cc(C)ccc2C)c1 (centres undefined) | i |
| c1ccc(-c2n[nH]nc2-c2ccccc2)cc1 | i |
| Cn1c(Cc2ccccc2)nnc1SCC(=O)Nc1ccc(Br)c(Cl)c1 | i |
| Cc1ccc(C(=O)c2ccc(N3CCOCC3)c([N+](=O)[O-])c2)cc1C | i |
| COC(=O)C1=CN(CCc2ccc(OC)cc2)C=C(C(=O)OC)C1c1ccccc1Br | 0.2% |
| Oc1ccc2ccccc2c1CNc1nc2ccccc2n1CCN1CCCCC1 | ? |
| CC(Sc1ccccc1)C(=O)NCc1ccco1 (centres undefined) | i |
| COc1ccc2oc(=O)c(C(=O)Nc3cc(Cl)ccc3C)cc2c1 | i |
| CCOC(=O)c1c(NC(=O)c2cccc(OC(C)=O)c2)sc(CC)c1-c1ccccc1 | 25.7% |
| COc1cccc(NS(=O)(=O)c2ccc(Oc3ccccc3C)cc2)c1 | i |
| COc1ccc(CC(=O)Nc2sc3c(c2C(N)=O)CCCCC3)cc1OC | i |
| COc1ccc(C(=O)CS(=O)(=O)c2ccc3ccccc3c2)cc1 | i |
| O=C(CSc1nc(-c2ccccc2)nc2c1CCCC2)NCc1ccccc1 | i |
| COC(=O)c1c(NS(C)(=O)=O)sc2c1CCCC2 | i |
| CC1=C(C(=O)Nc2cc(C)cc(C)c2)C(c2cccc([N+](=O)[O-])c2)NC(=S)N1 (centres undefined) | 0.8% |
| S=C(NCc1ccc2c(c1)OCO2)NCc1ccco1 | i |
| CCc1ccc(N2CCN(S(=O)(=O)c3ccc(OC)c(C)c3)CC2)cc1 | 4.9% |
| CN=C(c1ccc(C)cc1)n1c(=S)nc(-c2ccc(C)cc2)n(C)c1=S | 0.1% |
| O=C(NCc1ccccn1)c1cc(-c2ccc(Br)cc2)nc2ccccc12 | i |
| CN(c1ccccc1C(=O)NCc1ccco1)S(C)(=O)=O | i |
| COc1ccc(C(=O)NC(=S)Nc2cccc(-c3nc4cc(C)c(C)cc4o3)c2C)cc1OC | i |

Of the compounds above, these have a cyano group.
| smiles | Mtb growth |
| --- | --- |
| Cc1ccc(C(=O)NC(=S)Nc2sc(C)c(C)c2C#N)cc1 | 2.1% |
| CCOC(=O)C1=C(C)NC(=S)NC1c1cc(I)c(OCC#N)c(OC)c1 (centres undefined) | i |

Additional compounds
| smiles | Mtb growth |
| --- | --- |
| c1csc(-c2nn3c(Cn4nnc5ccccc54)nnc3s2)c1 | 1.6% |
| CCC(=O)Nc1ccccc1N1CCN(C)CC1 | 5.4% |
| O=S(=O)(c1cccs1)N(c1ccccc1)C(F)F | i |
| O=C(Nc1ccccc1C(=O)NC(Cc1ccccc1)C(=O)Nc1ccccc1Br)c1ccccc1 (centres undefined) | 11.6% |
| Cc1cc(Br)ccc1OCC(=O)Nc1ccc(S(=O)(=O)N2CCCCCC2)cc1 | 17.8% |
| NS(=O)(=O)c1ccc(NC(=S)Nc2ccccc2Sc2ccc(Cl)cc2)cc1 | i |
| COc1ccc(C(=O)Nc2ccccc2C(=O)Nc2cccc([N+](=O)[O-])c2)cc1 | i |
| COc1cc(CNc2ccc3[nH]c(=O)[nH]c3c2)cc(Cl)c1OCC(=O)NC(C)(C)C | 6.6% |
| CC(C)C(=O)Nc1ccc(NC(=O)c2ccc(Br)o2)cc1 | i |
| O=C(Nc1ccccc1[N+](=O)[O-])c1ccc(-c2ccccc2Cl)o1 | i |
| O=[N+]([O-])c1ccc(Oc2cc(Cl)c(Cl)cc2Cl)cc1 | i |
| Cn1c(-c2cccc(NC(=O)c3ccccc3F)c2)n[nH]c1=S | i |
| CN(C)CCNC(=O)c1ccc(Br)s1 | i |
| Cc1ccccc1NS(=O)(=O)c1c(C)cc(N2CCCC2=O)cc1C | 0.2% |
| O=C(NCc1cccc(C(F)(F)F)c1)Nc1cccc(Cl)c1 | 5.93µg/mL* |
| N/C(=N\OC(=O)CCCOc1ccccc1)c1ccc(Br)cc1 | 2.3% |
| O=C(O)c1cn(-c2ccccc2)nc1-c1cccc([N+](=O)[O-])c1 | i |
| CCCOc1ccc(-c2csc(N)n2)cc1 | i |
| COc1ccc(S(=O)(=O)Nc2ccc(S(=O)(=O)Nc3cccc4ccccc34)cc2)cc1C | i |
| COc1ccc(Cl)cc1C(=O)Nc1nnc(CC(C)C)s1 | i |
| COc1ccc(OC)c(NC(=S)N2CCC(C(N)=O)CC2)c1 | 3.2% |
| c1cc2c3c(cccc3c1)NC1(CCCCCC1)N2 | i |
| COc1ccc(CCNC(=O)c2ccc(C#CC(C)(C)O)s2)cc1 | <0.1µg/mL* |
| Cc1ccc(NC(=O)C(C)NC(=O)CC23CC4CC(CC(C4)C2)C3)cc1 (centres undefined) | i |
| CC(=O)N1C(=O)C2(Nc3ccccc3N2)c2ccccc21 | i |
| O=C(O)c1ccccc1S(=O)(=O)c1ccccc1[N+](=O)[O-] | i |
| CCc1cccc(C)c1NC(=O)C(C)Oc1ccc(OC)cc1 (centres undefined) | i |
| O=C(CN1C2=NCCCN2c2ccccc21)c1ccc(O)cc1 | i |
| COc1ccccc1CC(=O)Nc1cc(C)on1 | i |
| CCN(CC)CC#CC1(OCCC#N)CCCCC1 | i |
| COC(=O)c1cc(NC(=O)c2cc(-c3cccs3)nc3ccccc23)cc(C(=O)OC)c1 | i |
| COc1cc(OC)cc(C(=O)Nc2ccc(NC(=O)c3cc(OC)cc(OC)c3)cc2)c1 | i |
| c1ccc2c(c1)nnn2Cc1nnc2sc(-c3cnccn3)nn12 | i |
| CCCCOc1ccc(C(=O)NNC(=S)NC(C)c2ccccc2)cc1 (centres undefined) | i |
| Cc1ccc(S(=O)(=O)N2CCN(C(=O)N(c3ccccc3)c3ccccc3)CC2)cc1 | 4.0% |
| O=C(O)C1CC=C(Cl)CC1C(=O)N1CCCCC1 (centres undefined) | 6.7% |
| COc1cccc(N(CC(=O)Nc2cc(C(F)(F)F)ccc2Cl)S(=O)(=O)c2ccccc2)c1 | 0.9% |
| COC(=O)c1ccccc1NC(=O)CN(c1ccc(I)cc1)S(C)(=O)=O | i |
| O=C(CSc1nnc(-c2ccncc2)n1-c1ccc(F)cc1)c1ccc(Cl)cc1 | i |
| O=C(Nc1ccc(S(=O)(=O)Nc2ccc(F)cc2)cc1)C(F)(F)F | i |
| Cc1ccc(C(=O)NC(=S)Nc2ccc3[nH]c(=O)[nH]c3c2)c(C)c1 | i |
| CCCCOc1ccc(NC(=O)COc2ccccc2CC)cc1 | 10.5% |
| O=C(COc1ccccc1)NCC1OCCc2ccccc21 (centres undefined) | i |
| COc1ccccc1N/C(=N\c1nc(C)cc(C)n1)NC(C)=O | 1.8% |
| Cc1cc(Cl)ccc1NC(=O)CCC1CCCC1 | 4.3% |
| CCc1cccc(C)c1NC(=O)c1ccc(-c2ccc(Cl)cc2)o1 | i |
| Cc1ccc(S(=O)(=O)N(C)CC(=O)Nc2cc(Cl)ccc2Oc2ccccc2)cc1 | i |
| O=C(NNC(=S)NC1CCCCC1)NC12CC3CC(CC(C3)C1)C2 | i |
| CC1Cc2ccccc2N1C(=O)c1cccnc1 (centres undefined) | i |
| Cc1ccccc1NC(=S)NC(=O)CCc1ccccc1 | i |

(further entries)
| smiles | Mtb growth |
| --- | --- |
| Cc1ccccc1Cn1ccc(NC(=O)c2cnn3cccnc23)n1 | i |
| O=C(COc1ccc(-c2ccccc2)cc1)NNC(=O)c1ccc(F)cc1 | i |
| O=C(Nc1ccc(Cl)cc1F)c1cccc(C(=O)Nc2ccc(Cl)cc2F)n1 | i |
| O=C(CSc1ccccn1)Nc1nc2ccc([N+](=O)[O-])cc2s1 | i |
| COc1ccc(-c2cc(-c3ccccc3)nc(SCC(=O)NCC3CCCO3)c2C#N)cc1OC (centres undefined) | 3.6% |
| C=CCNC(=O)c1c(NC(=O)c2oc3ccccc3c2C)sc2c1CCCC2 | i |
| NC(=O)C1(N2CCCCC2)CCN(CC(=O)Nc2ccc(F)cc2)CC1 | i |

Source: PubChem
